# Compound activity as filed in PubChem.
# Mtb betalactam – beta-lactam sensitization of Mtb H37Rv | actives 0.27% (n = 330,000) | AID 434955 | M. tuberculosis H37Rv growth with meropenem, percent inhibition; hits of this screen are not shown here | inhibition, % at 25 µM;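 active = about 74% or more and at least 40 points above the plate without the antibiotic, then above 30% in a dose series; inconclusive = first-round hits that could not be retested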;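 also: growth measured after seven days incubation then overnight dye step; 0% = bacteria only wells and 100% = bacteria with antibiotic; twin plates without the antibiotic show which effects depend on it; some results filed as inactive read as strong as hits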
# An asterisk follows results filed as active; ? = inconclusive.
molecule | Mtb betalactam
Cc1occc1C(=O)Nc1cc(S(=O)(=O)N2CCOCC2)ccc1OC(C)C | -3
O=C(CCNC(=O)c1ccc(Br)cc1)NC1CCCCCC1 | 2
COC(=O)C1=C(c2ccc(Cl)c(C(F)(F)F)c2)C[C@@H]2CC[C@H]1N2C(=O)NCCCOC(C)C | 5
COc1ccc(C(CNC(=O)C(CCSC)NC(=O)c2ccccc2Cl)N2CCCCC2)cc1 (stereo not given) | 0
CCOc1ncccc1C(=O)OCC(=O)NCc1cccs1 | -2
CCN1C[C@]2(C)CC[C@H](O)[C@]34C1[C@H](C[C@H]23)[C@@]1(O)C[C@H](OC)[C@H]2C[C@@H]4[C@@H]1C2O (stereo not given in full) | 0
CC(C)(C)OC(=O)C[C@H]1C/C=C\C[C@H](CC(=O)N(CCO)Cc2ccccc2)C(=O)NCCOC1=O | -5
O=C1C=C(c2ccc3[nH]ccc3c2)C[C@@H](c2ccc(Cl)cc2)C1 | 95
CC(=O)N[C@@H](CC(=O)N[C@H](CCC(=O)O)C(=O)O)C(=O)O | -1
O=S(=O)(NCC1CN(S(=O)(=O)c2c(F)cccc2F)C1)c1ccc2c(c1)OCCO2 | -6
Cc1ccccc1CC(=O)Nc1cccc(S(=O)(=O)N2CCCC2)c1 | -1
COc1ccc(NC(=O)c2cc(S(=O)(=O)N3CCOCC3)ccc2C)cc1S(=O)(=O)N1CCOCC1 | -4
COc1ccc(NC(=O)c2cc(C)cc(C)c2)cc1S(=O)(=O)N1CCCCC1 | 0
COc1cc(OC)cc(C(=O)NCC(=O)NCCN2C(=O)S/C(=C\c3ccccc3Cl)C2=O)c1 | -5
CCN(CC(=O)Nc1ccc(NC(C)=O)cc1)C(=O)c1cccc2ccccc12 | 0
O=S(=O)(c1cccc(C(F)(F)F)c1)N1CCN(CC(O)COCc2ccccc2)CC1 (stereo not given) | 4
COc1cc(NC(=O)COC(=O)CCc2nc3ccccc3c(=O)[nH]2)cc(OC)c1 | 3
O=C(COC(=O)c1n[nH]c(=O)c2ccccc12)NC1CCCCC1 | 1
CCN1CCN(S(=O)(=O)c2ccc(OC)c3ccccc23)CC1 | -8
COC1=CC(=O)O[C@@H](/C=C/c2ccccc2)C1 | 0
CCN(CC(=O)Nc1cccc(OC)c1)C(=O)c1cccc(S(=O)(=O)N2CCc3ccccc32)c1 | -6
CCOC(=O)C1=C(C)Nc2ccccc2N=C1NC(=O)c1oc2ccccc2c1COC | 3
CCO[C@H]1c2c(ccc3ccc(=O)oc23)OC(C)(C)[C@H]1O | 3
O=C(CCNC(=O)c1ccccc1Cl)Nc1cccc(S(=O)(=O)N2CCOCC2)c1 | -5
Cc1ccc(S(=O)(=O)N2CCN(C(=O)C(C)Cn3cncn3)CC2)cc1 (stereo not given) | 0
O=C(c1cccc(O)c1)N1CCN(C(=O)C2CC2)CC1 | 8
Cc1ccc(OCCNC(=O)CCNS(=O)(=O)c2ccc3ccccc3c2)cc1 | 0
O=C1NCCOC(=O)[C@@H](Cc2ccc(F)cc2)CC/C=C/C[C@H]1CC(=O)N(CCO)Cc1ccccc1 | -4
OCC[C@H]1C[C@H](O)[C@@H](O)[C@@]2(CCCc3ccccc3O2)O1 | -14
CC(CNC(=O)COC(=O)c1ccco1)c1ccccc1 (stereo not given) | 5
Cc1nnsc1C(=O)NC1CCCc2c1cnn2-c1ccc(F)cc1F (stereo not given) | -7
C[C@H]1COC(=O)[C@H](Cc2ccc(F)cc2)CC/C=C/C[C@@H](CC(=O)N(CCO)Cc2ccccc2)C(=O)N1 | -2
Cc1ccc([C@@H]2CC=C(C(=O)O)[C@H](c3ccc(Br)cc3)N2S(=O)(=O)c2ccc(C)cc2)cc1 | 10
COc1ccc(S(=O)(=O)N2CCCCCC2)cc1C(=O)OCC(=O)NC1CCS(=O)(=O)C1 (stereo not given) | -7
CCCCN(C(=O)c1ccc(N2CCCC2=O)cc1)c1c(N)n(CCC)c(=O)[nH]c1=O | 5
CCC(=O)N(c1nnc(SCC(=O)c2ccc[nH]2)s1)C1CC1 | -3
CC(=O)c1c(C)[nH]c(C(=O)CN2C(=O)NC(CCc3ccccc3)C2=O)c1C (stereo not given) | -13
COc1cc(OC)cc(-c2c(-c3cccs3)c3cc(-c4cccc5[nH]ccc45)ccc3n2C)c1 | 7
CN(Cc1cccs1)C(=O)C1CCN(S(=O)(=O)c2ccccc2)CC1 | -3
Cc1c(NC(=O)COc2cccc(F)c2)c(=O)n(-c2ccccc2)n1C | -2
CC(Sc1n[nH]c(-c2cccs2)n1)C(=O)Nc1ccccc1F (stereo not given) | -12
C[C@@H]1CN([C@@H](C)CO)C(=O)c2cc(N(C)C)ccc2O[C@@H]1CN(C)Cc1ccncc1 | -1
CCc1ccccc1-n1nnnc1SCC(=O)Nc1cc(C)on1 | -7
CCOc1cccc(C2CC(=O)Nc3cc(OC)c(OC)cc32)c1 (stereo not given) | -12
CCN1C(=O)[C@H]2[C@@H](c3ccc(-c4cccc(Cl)c4)cc3)N[C@@](CC(C)C)(C(=O)OC)[C@H]2C1=O | -3
COc1ccc(N2CCN(C(=O)c3ccc(-c4nc5ccccc5s4)o3)CC2)cc1 | 0
C[C@H](CO)N1C[C@H](C)[C@@H](CN(C)S(=O)(=O)c2ccccc2)Oc2c(NC(=O)C3CCCCC3)cccc2C1=O | 5
COc1ccc(Cl)cc1-c1nc(SCC(=O)NC2CCS(=O)(=O)C2)n[nH]1 (stereo not given) | -6
CCNC(=O)Nc1cc(S(=O)(=O)Nc2ccc(OC)cc2)ccc1N1CCOCC1 | 1
CCOc1ccc(N(CC(=O)NC2CCCC2)C(=O)CCC(=O)Nc2nc(C)cs2)cc1 | 1

# The final two compounds of the section before come first, to join the parts.
molecule | Mtb betalactam
CCNC(=O)Nc1cc(S(=O)(=O)Nc2ccc(OC)cc2)ccc1N1CCOCC1 | 1
CCOc1ccc(N(CC(=O)NC2CCCC2)C(=O)CCC(=O)Nc2nc(C)cs2)cc1 | 1
CCOc1ccc(C(=O)CCC(=O)NNC(=O)CCN2CCN(c3ccccc3)CC2)cc1 | -7
CN(CC(=O)Nc1ccc(F)c(F)c1F)C(=O)C1CCCC1 | 4
O=C(CN1C(=O)NC2(CCCC2)C1=O)OCc1cccc(Br)c1 | -4
CN(C(=O)CCCN1C(=O)c2ccccc2C1=O)C1CCCCC1 | 4
Cc1ccc([C@H]2C(C(=O)O)=CC[C@@H](c3ccc(C)cc3)N2S(=O)(=O)c2ccccc2C)cc1 | 5
CCCCC(CC)C(=O)Nc1cc(C(=O)NCc2ccc(C)cc2)ccc1N1CCC2(CC1)CC(c1cccc(Br)c1)=NO2 (stereo not given) | -5
CCOc1ccc(NC(=O)COc2ccccc2C(=O)NCc2ccccc2)cc1 | 22
COc1ccc(Br)cc1C(=O)Nc1ccccc1N1CCCC1 | 91
CC(=O)c1ccccc1OCC(=O)Nc1cccc(S(=O)(=O)N2CCCC2)c1 | 0
CCN(c1ccc(NC(=O)CSc2ccc3c(c2)OCCO3)cc1)C(C)C | -4
O=C(O)c1ccc(C2Nc3ccccc3C(=O)N2Cc2ccccc2)cc1 (stereo not given) | -4
O=S(=O)(c1ccc(Cl)cc1)c1ccc(Cl)cc1 | 4
CCCN1CCN(S(=O)(=O)c2ccc3c(c2)CCC(=O)N3)CC1 | 4
Cc1nn(CC(=O)NC2CC2)c(C)c1S(=O)(=O)NC(C)(C)C | 0
Cc1ccc(C(=O)OCC(=O)N2CCC(c3ccccc3)=N2)cc1 | 1
COC(=O)C1=C(c2c(C)noc2C)C[C@@H]2CC[C@H]1N2C(=O)NCc1ccco1 | -3
Cc1csc(NC(=O)CCC(=O)N(CC(=O)NC2CCCC2)Cc2ccccc2)n1 | -6
COC(=O)C1=C(c2ccccc2OCc2ccccc2)C[C@@H]2CC[C@H]1N2C(=O)NCCc1ccc(F)cc1 | -17
Cn1c(N)c(C(=O)COC(=O)CNC(=O)c2ccc(Cl)cc2Cl)c(=O)n(C)c1=O | 3
CC(OC(=O)/C=C/c1ccccc1)C(=O)NC1CCCCC1C (stereo not given) | -10
CCCCC(=O)NC(c1ccc(C(C)C)cc1)c1ccc2cccnc2c1O (stereo not given) | 3
CCOc1ccc2oc(C(=O)OCC(=O)N3CC(C)OC(C)C3)c(C)c2c1 (stereo not given) | 3
CN(CC(=O)NCc1ccccc1Cl)S(=O)(=O)c1cccs1 | -7
O=c1c2ccccc2ccc2ccc(P(=O)(O)O)cc12 | -7
CC1CCCC(C)N1C(=O)COC(=O)CN1C(=O)c2ccccc2C1=O (stereo not given) | -1
CCCN(CC(=O)Nc1ccccc1C)C(=O)c1ccc(N2CCCC2=O)cc1 | -4
c1ccc(-[n+]2nc(Nc3cccc4ccccc34)sc2-c2c3ccccc3cc3ccccc23)cc1 | 88
CC(=O)c1ccc(OCCCC(=O)Nc2ccc3c(c2)OCCO3)cc1 | -5
CCN(c1ccccc1)S(=O)(=O)c1ccc(OC)c(NC(=O)c2ccc(=O)[nH]c2)c1 | 0
CC(=O)C(CC(=O)N1CCCC1)C(=O)Nc1ccc(Cl)cc1 (stereo not given) | 0
CCCCN1C(=O)c2ccc(C(=O)N(C)CC(=O)Nc3ccc(OCC)c(OCC)c3)cc2C1=O | -7
Cc1ccccc1NC(=O)Cc1nc(COC(=O)c2ccc(S(C)(=O)=O)c([N+](=O)[O-])c2)cs1 | -1
O=C(OCC(=O)N1CCN(c2ccc(F)cc2)CC1)c1cnc2ccccc2n1 | -1
Cc1cccc(NC(=O)c2cccc(S(=O)(=O)N(C)c3ccccc3)c2)n1 | -6
COC(=O)C1=C(c2ccccc2OCc2ccccc2)C[C@@H]2CC[C@H]1N2C(=O)NCc1ccc(Cl)cc1 | -3
O=C(Cc1ccccc1F)Nc1ccc(S(=O)(=O)N2CCCC2)cc1 | -13
Cc1ccc(S(=O)(=O)N[C@H](C(=O)N2CCC(C(=O)N[C@@H](CCC(N)=O)C(=O)O)CC2)C(C)C)cc1 | 3
N#Cc1cccnc1N1CCN(C(=O)c2cccc3c2C(=O)c2ccc(Cl)cc2S3(=O)=O)CC1 | 1
Cc1noc(C)c1NC(=O)Nc1cccc2c1O[C@H](CN(C)C(=O)NC(C)C)[C@@H](C)CN([C@H](C)CO)C2=O | 13
O=C(NC(=S)Nc1ccccc1CO)C1CCCCC1 | -6
CN(CC(=O)Nc1cccc(F)c1)C(=O)c1cc(=O)[nH]c2ccccc12 | 5
O=c1c2c(O)cc(O)cc2oc2c(O)ccc(O[C@H]3O[C@@H](CO)[C@H](O)[C@@H](O)[C@@H]3O)c12 | 1
COc1ccc([C@H]2CC(=O)C=C(c3cccc4c3Oc3ccccc3S4)C2)cc1OC | 33
CC(=O)O[C@H]1C(=O)[C@@]2(C)C([C@H](OC(=O)c3ccccc3)[C@]3(O)C[C@H](OC(=O)[C@H](O)[C@@H](NC(=O)Cc4ccccc4)c4ccccc4)C(C)=C1C3(C)C)[C@]1(OC(C)=O)CO[C@@H]1C[C@@H]2O (stereo not given in full) | 1
Cc1ccc(C)c(S(=O)(=O)Nc2ccc(C(=O)N3CCC3)cc2)c1 | 2
CCN(CC(=O)NCc1cccs1)C(=O)CCOc1ccccc1 | 0
O=C(COC(=O)c1ccc2ncsc2c1)NCc1ccc(F)cc1 | 19
CC(=O)c1cccc(S(=O)(=O)N2CCC(C(=O)OC3CCOC3=O)CC2)c1 (stereo not given) | -1
C[C@H](CO)N1C[C@H](C)[C@@H](CN(C)Cc2ccncc2)Oc2c(NC(=O)Cc3ccccc3)cccc2C1=O | -4
CC(OC(=O)c1cc(Br)ccc1O)C(=O)Nc1ccc(S(=O)(=O)N2CCCC2)cc1 (stereo not given) | -2

# The results go on:
molecule | Mtb betalactam
CCSC(=N)N | -7
O=C(NC(=S)NC1CCSC1=O)c1ccc([N+](=O)[O-])cc1 (stereo not given) | ?
Cc1cccc(Oc2ccc(S(=O)(=O)N3CCCCC3)cc2NC(=O)C2=COCCO2)c1 | -4
Cc1ccc(C)c(S(=O)(=O)Nc2ccc(C(=O)N3CCCCC3)cc2)c1 | -2
COc1cc2cc(CCCOC(=O)c3ccc4c(c3)OCO4)oc(=O)c2cc1OC | -4
N#Cc1ccccc1OCC(=O)NNC(=O)CNC(=O)c1ccc(Br)o1 | -6
CCOC(=O)C1CCN(C(=O)COC(=O)CNC(=O)c2ccc(C(C)(C)C)cc2)CC1 | -6
Cc1ccc([C@H]2C(C(=O)O)=C[C@@H](C(C)(C)C)N2S(=O)(=O)c2ccc(C)cc2)cc1 | -5
CC(C(=O)N(C)CC(=O)Nc1ccccc1C(F)(F)F)N1C(=O)c2ccccc2C1=O (stereo not given) | -5

# Filtered by structure: the entries above containing an NH in an aromatic ring.
molecule | Mtb betalactam
O=C1C=C(c2ccc3[nH]ccc3c2)C[C@@H](c2ccc(Cl)cc2)C1 | 95
COc1cc(NC(=O)COC(=O)CCc2nc3ccccc3c(=O)[nH]2)cc(OC)c1 | 3
O=C(COC(=O)c1n[nH]c(=O)c2ccccc12)NC1CCCCC1 | 1
CCCCN(C(=O)c1ccc(N2CCCC2=O)cc1)c1c(N)n(CCC)c(=O)[nH]c1=O | 5
CCC(=O)N(c1nnc(SCC(=O)c2ccc[nH]2)s1)C1CC1 | -3
CC(=O)c1c(C)[nH]c(C(=O)CN2C(=O)NC(CCc3ccccc3)C2=O)c1C (stereo not given) | -13
COc1cc(OC)cc(-c2c(-c3cccs3)c3cc(-c4cccc5[nH]ccc45)ccc3n2C)c1 | 7
CC(Sc1n[nH]c(-c2cccs2)n1)C(=O)Nc1ccccc1F (stereo not given) | -12
COc1ccc(Cl)cc1-c1nc(SCC(=O)NC2CCS(=O)(=O)C2)n[nH]1 (stereo not given) | -6
CCN(c1ccccc1)S(=O)(=O)c1ccc(OC)c(NC(=O)c2ccc(=O)[nH]c2)c1 | 0
CN(CC(=O)Nc1cccc(F)c1)C(=O)c1cc(=O)[nH]c2ccccc12 | 5

# Not all compounds are listed. The share of hits here may be higher or lower than overall.
